# RE007 growth inh: less growth of the S. pombe RE007 Vpr strain; Potency, µM (series often up to 92.2 µM), for the others: at the highest dose activity change, negative = less growth; S. pombe RE007 Vpr strain, BacTiter-Glo ATP luminescence, 24 h; control for the full effect not named in the record; 0.21% of 360,000 active; active = well fitted falling curve with a large enough effect; inconclusive = small, poorly fitted or top-dose-only effect; inactive = no such curve, though single readings can be large or run the other way;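 also: % is scaled to controls: 0 for no effect and ±100 for the full control effect; nearly all actives have a fitted effect of over 50% in size; the assay follows cell death caused by Vpr and the record does not say whether a fall means rescue or toxicity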
#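 Fission yeast RE007 carrying one integrated HIV-1 vpr copy, seeded at OD 0.01 in PMG+AL medium with 23 nL pinned compound. Grown 24 h at 30 degrees; viability read by BacTiter-Glo luminescence after 5 min.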
# StopGo reporter: FMDV 2A StopGo reporter, luciferase signal | human cells with a luciferase reporter of 2A StopGo recoding; control for the full effect not named in the record | Potency, µM (doses to about 57.9 µM), inactives show at the highest dose signal change, negative = less light | 1.2% of 410,000 active; active = well fitted falling curve with a large enough effect; inconclusive = small, poorly fitted or top-dose-only effect; inactive = no such curve, though single readings can be large or run the other way; tested in HEK293T cells; also: % is scaled to controls: 0 for no effect and ±100 for the full control effect; nearly all actives have a fitted effect of over 45% in size; luciferase light after 4 h
# SARS PLpro yeast: blocks SARS-CoV papain-like protease in a yeast assay; S. cerevisiae expressing SARS-CoV PLpro, growth rescue; control for the full effect not named in the record; Potency, µM (doses to about 32.9 µM), for inactives: top-dose activity, positive = growth rescue; 0.19% of 330,000 active; AID 485353; active means well fitted rising curve with a large enough effect; inconclusive means small, poorly fitted or top-dose-only effect; inactive means no such curve, though single readings can be large or run the other way; also: 0% is about no effect; nearly all actives have a fitted effect of over 55% in size; growth read by luminescence after 48 h
# * hit, by the source's call; u = inconclusive; [ ] = remark or other dose. Potency is read from the fitted curve at half-maximal effect. Not all compounds are listed, so the mix of outcomes need not match the whole.
SMILES,RE007 growth inh,StopGo reporter,SARS PLpro yeast
Nc1c(N(Cc2ccco2)C(=O)COc2ccccc2F)c(=O)[nH]c(=O)n1Cc1ccccc1,6.5%,-16.5%,0.1%
Cc1cccc(NC(=O)c2nc[nH]c2C(=O)NCCCCCNC(=O)OC(C)(C)C)c1,-2.4%,u,-0.9%
CCC(=O)Nc1ccc(C(=O)COC(=O)c2nc3nccc(C)n3n2)cc1,15.3%,-9.5%,7.6%
CCOC(=O)C1=CC[C@@H](c2cccc(C)c2)N(S(=O)(=O)c2ccc(C)cc2)[C@H]1C(=O)OCC,13.5%,-15.8%,0.6%
COc1ccc(S(=O)(=O)N2CCN(C(=O)c3cc(C)on3)CC2)cc1,-5.8%,-7.3%,3.8%
CC(Oc1cccnc1[N+](=O)[O-])C(=O)Nc1ccc(F)cc1 (stereo not given),5.7%,-11.9%,-3.3%
CCOC(=O)C1=C(COC(=O)Cc2c(F)cccc2Cl)NC(=O)NC1C (stereo not given),1.5%,0.0%,2.1%
COCCCN(C(=O)c1cc(C)oc1C)c1c(N)n(CC(C)C)c(=O)[nH]c1=O,3.7%,-2.8%,-6.0%
Cn1cc([N+](=O)[O-])c(C(=O)NNC(=O)c2ccc([N+](=O)[O-])cc2)n1,-9.0%,22.0%,1.9%
CN(CC(=O)Nc1cccc(F)c1)C(=O)CN1C(=O)C2CCCCC2C1=O (stereo not given),3.3%,-14.2%,3.4%
CCCC(NC(=S)NCC1CCCO1)C12CC3CC(CC(C3)C1)C2 (stereo not given),-3.9%,-8.9%,3.5%
Cc1csc2ncnc(NCCc3ccccn3)c12,-12.3%,u,-1.1%

# Single values from above:
# COc1ccc(S(=O)(=O)N2CCN(C(=O)c3cc(C)on3)CC2)cc1 in StopGo reporter: -7.3%
# Cn1cc([N+](=O)[O-])c(C(=O)NNC(=O)c2ccc([N+](=O)[O-])cc2)n1 in RE007 growth inh: -9.0%

# Going on with the list.
SMILES,RE007 growth inh,StopGo reporter,SARS PLpro yeast
O=C(CSc1nc2[nH]c(=O)cc(O)c2s1)Nc1cccc(Br)c1,-15.7%,-2.1%,-16.3%
C[C@H](CO)N1C[C@H](C)[C@@H](CN(C)S(C)(=O)=O)Oc2c(NC(=O)Nc3ccc(C(F)(F)F)cc3)cccc2C1=O,-4.5%,-10.5%,-3.7%
O=C1C=C(c2ccc(O)cc2)C[C@@H](c2ccc(Cl)cc2)C1,-14.1%,u,2.2%
CNNC(=O)C(=O)NNS(=O)(=O)c1ccccc1,4.6%,-14.3%,0.6%
C/C(=C\c1ccccc1)C(=O)NCCCn1ccnc1,-0.1%,2.7%,-0.4%
Cc1cc(C)n2c(SC(C)C(=O)NC3(C#N)CCCCC3)nnc2n1 (stereo not given),-2.6%,-8.9%,-4.8%
CCC1(c2ccc(OC)cc2)NC(=O)N(CC(=O)NC2CCCCC2C)C1=O (stereo not given),13.0%,-14.4%,-0.3%
COc1cc2c(C#CCCO)c(-c3ccc(C#N)cc3)oc(=O)c2cc1OC,3.2%,-22.8%,1.8%
N#Cc1c(Cl)nsc1NC(=O)c1ccccc1,u,-2.4%,-24.1%
CC(=O)c1cccc(NC(=O)C(C)OC(=O)CNC(=O)c2ccc(C)s2)c1 (stereo not given),0.0%,8.1%,-2.2%
COc1ccccc1[C@@]1(C)ON(c2ccccc2C(F)(F)F)C1=O,0.4%,u,-2.5%
CC(N=C1NS(=O)(=O)c2ccccc21)C(=O)Nc1ccc(F)cc1Cl (stereo not given),3.3%,9.7%,-2.5%
COc1cc(C(=O)OCC(=O)Nc2ccc(S(=O)(=O)NC3=NCCCCC3)cc2)cc(OC)c1OC,-9.5%,-6.4%,5.6%
CCCCOc1cc(NCc2ccccc2)c2ncn(C(C)C)c2c1,-9.0%,-24.0%,2.6%
COc1ccc(CNC(=O)CSc2ccsc2[N+](=O)[O-])cc1,2.2%,41.4%[activator],-0.4%
Cc1noc(C)c1NC(=O)Nc1cccc2c1O[C@H](CN(C)S(=O)(=O)c1c(C)noc1C)[C@@H](C)CN([C@H](C)CO)C2=O,1.1%,-3.8%,4.2%
Cc1cc(F)ccc1S(=O)(=O)Nc1ccc(C(=O)N2CCCCCC2)cc1,4.9%,9.9%,2.3%
Cc1ccc(-c2nc(SCC(=O)c3c(N)n(C)c(=O)n(C)c3=O)n[nH]2)cc1,0.4%,1.4%,0.1%
Cc1ccccc1C(=O)NNC(=O)c1cc(S(=O)(=O)N2CCOCC2)ccc1C,2.8%,-17.2%,10.0%
O=C(COC(=O)c1nn(CCO)c(=O)c2ccccc12)Nc1ccc(Cl)c(Cl)c1,0.8%,-14.0%,-4.8%
O=C(Nc1ccc(Cl)cc1)Nc1nc(-c2ccccc2)cs1,20.7%,-19.7%,0.3%
O=C(C[C@@H]1C/C=C\C[C@@H](Cc2ccc(F)cc2)C(=O)OC[C@@H]2CCCN2C1=O)N[C@H](CO)Cc1ccccc1,-11.5%,u,6.5%
CCN(CC)C(=O)c1[nH]cnc1C(=O)Nc1ccccc1,-6.6%,-1.7%,-7.4%
CCOc1ccccc1NC(=O)CN1C(=O)NC(Cc2c[nH]c3ccccc23)C1=O (stereo not given),8.0%,-9.8%,-4.7%

# An excerpt from above in order of count of non-hydrogen atoms, highest first.
SMILES,RE007 growth inh,StopGo reporter,SARS PLpro yeast
Cc1noc(C)c1NC(=O)Nc1cccc2c1O[C@H](CN(C)S(=O)(=O)c1c(C)noc1C)[C@@H](C)CN([C@H](C)CO)C2=O,1.1%,-3.8%,4.2%
O=C(C[C@@H]1C/C=C\C[C@@H](Cc2ccc(F)cc2)C(=O)OC[C@@H]2CCCN2C1=O)N[C@H](CO)Cc1ccccc1,-11.5%,u,6.5%
COc1cc(C(=O)OCC(=O)Nc2ccc(S(=O)(=O)NC3=NCCCCC3)cc2)cc(OC)c1OC,-9.5%,-6.4%,5.6%
CCOc1ccccc1NC(=O)CN1C(=O)NC(Cc2c[nH]c3ccccc23)C1=O (stereo not given),8.0%,-9.8%,-4.7%
Cc1ccccc1C(=O)NNC(=O)c1cc(S(=O)(=O)N2CCOCC2)ccc1C,2.8%,-17.2%,10.0%
CCC1(c2ccc(OC)cc2)NC(=O)N(CC(=O)NC2CCCCC2C)C1=O (stereo not given),13.0%,-14.4%,-0.3%
CC(=O)c1cccc(NC(=O)C(C)OC(=O)CNC(=O)c2ccc(C)s2)c1 (stereo not given),0.0%,8.1%,-2.2%
CC(N=C1NS(=O)(=O)c2ccccc21)C(=O)Nc1ccc(F)cc1Cl (stereo not given),3.3%,9.7%,-2.5%
COc1ccccc1[C@@]1(C)ON(c2ccccc2C(F)(F)F)C1=O,0.4%,u,-2.5%
COc1ccc(CNC(=O)CSc2ccsc2[N+](=O)[O-])cc1,2.2%,41.4%[activator],-0.4%
CCN(CC)C(=O)c1[nH]cnc1C(=O)Nc1ccccc1,-6.6%,-1.7%,-7.4%
N#Cc1c(Cl)nsc1NC(=O)c1ccccc1,u,-2.4%,-24.1%

# Next section.
SMILES,RE007 growth inh,StopGo reporter,SARS PLpro yeast
O=C(CNC(=O)c1ccccc1F)Nc1ccc2c(c1)OCO2,5.7%,82.4%[activator],-0.2%
Oc1c(C(c2ccccn2)N2CCCCC2)cc(Cl)c2cccnc12 (stereo not given),u,-28.4%,-24.8%
CCN1C(=O)[C@H]2[C@@H](c3ccc(-c4ccc5c(c4)OCO5)cc3)N[C@@](Cc3ccccc3)(C(=O)OC)[C@H]2C1=O,12.6%,-8.8%,-22.0%
CC(C)n1nc(C(=O)NC2CCCCCC2)c2ccccc2c1=O,-8.5%,-17.4%,-1.0%
CC[C@]12c3[nH]c4ccc(Cl)cc4c3CCN1C(=O)[C@@H](CC(=O)NCCCn1ccnc1)C[C@@H]2C(=O)N1CCN(C(=O)C2CC2)CC1,8.1%,-15.7%,0.1%
CN(C)Cc1c(C(C)(C)O)[nH]c2ccc(C(F)(F)F)cc12,7.1%,-14.0%,-3.3%
CCOC(=O)C1=C(COC(=O)CCc2ccc(F)cc2)NC(=O)NC1C (stereo not given),4.5%,-3.5%,2.6%
C#CCOCCOCCOCCNc1nc(N2CCN(C(=O)CCCCCCCCCCNC(=O)[C@H](CCCCN)n3cc(C[C@@H](C)CC)nn3)CC2)nc(N2CCN(C(=O)CCCCCCCCCCNC(=O)[C@@H]([C@H](C)O)n3cc(C)nn3)CC2)n1,3.1%,u,-15.6%
Cc1cccc(C(=O)OCC(=O)c2ccc(CC(=O)N3CCOCC3)s2)c1C,4.2%,6.5%,2.3%
C#CCOCCOCCOCCNc1nc(N2CCN(C(=O)CCCCCCCCCCNC(=O)[C@@H](CCC(=O)O)n3cc(CCCCCN)nn3)CC2)nc(N2CCN(C(=O)CCCCCCCCCCNC(=O)[C@H]([C@@H](C)CC)n3cc(CCCCCN)nn3)CC2)n1,34.2%,-7.9%,2.2%
COC(=O)C1=C(c2cccc(OCc3ccccc3)c2)C[C@@H]2CC[C@H]1N2C(=O)NCc1ccccc1C(F)(F)F,-6.0%,-17.5%,-3.0%
Cc1ccccc1-n1nc(-c2cccnc2)cc1C(=O)NN,-6.3%,-13.1%,-2.2%
O=C(C1CC2C=CC1C2)N1CCN(c2ccccc2)CC1 (stereo not given),-7.4%,3.5%,-11.6%
C=CCOC1=CS(=O)(=O)N(Cc2ccc(Br)cc2)c2ccc(Br)cc21,2.5%,-21.9%,-30.2%
NS(=O)(=O)c1cc(Cl)c(NC(=O)COC(=O)c2ccccn2)c(Cl)c1,6.6%,3.9%,9.3%
CCCN(C(=O)CSc1ccccc1C(=O)O)C1CCS(=O)(=O)C1 (stereo not given),-1.8%,2.2%,-7.0%
CCOC(=O)[C@H]1[C@H]2COc3ccc(Cl)cc3[C@@H]2N2C(=O)CN(Cc3ccco3)C(=O)[C@@]12C,17.1%,-10.1%,-8.6%
Cc1ccccc1C(=O)NC1CCN(CC(=O)Nc2ccc3c(c2)OCCO3)CC1,10.6%,-19.5%,0.2%
O=C(O)CNC(=O)c1cccc(C(F)(F)F)c1,4.0%,-4.8%,0.7%
CC(=O)Nc1ccc(S(=O)(=O)NCC(=O)OCC(=O)NNC(=O)c2ccccc2)cc1,7.7%,-18.2%,6.3%
Cc1noc(C)c1NC(=O)N(C)C[C@H]1Oc2c(NS(=O)(=O)c3cccs3)cccc2C(=O)N([C@H](C)CO)C[C@@H]1C,-12.8%,3.5%,-19.9%
COc1ccc(NC(=O)C2CSC(C)(C)N2C=O)cc1 (stereo not given),-7.2%,9.0%,1.2%
C=CCN=c1scc(C)n1/N=C/c1ccc(O)c(O)c1,-13.0%,76.6%[activator],0.2%
CC(C)NC(=O)COC(=O)c1ccccc1C(=O)c1ccccc1,-13.0%,8.7%,0.5%
C[C@H](CO)N1C[C@H](C)[C@@H](CN(C)S(=O)(=O)c2ccc(F)cc2)Oc2ccc(NC(=O)Nc3ccc4c(c3)OCO4)cc2C1=O,22.7%,-21.2%,-3.1%
CSc1nnc(C)c(=O)n1COC(=O)COc1ccc(Cl)cc1Cl,1.6%,-2.1%,-3.5%
CCOc1ccc(CN(C)C(=O)c2ccc3c(c2)NC(=O)C(C)S3)cc1OC (stereo not given),7.7%,u,-15.7%
Cc1sc2ccccc2c1CNC[C@H]1O[C@@H](n2cnc3c(N)ncnc32)[C@H](O)[C@@H]1O,-8.1%,-20.9%,8.2%
CC(=O)/C=C1/C(=O)Nc2ccccc21,10.3%,u,-19.9%
[O-]/[N+](=C\c1ccccc1)c1ccc(Br)cc1,7.7%,47.8%[activator],-20.4%
O=C(CSc1n[nH]c(-c2ccc(Br)cc2)n1)NC1CCCC1,4.2%,u,-10.1%
O=C(C[C@H]1C[C@H](C(=O)N2CCOCC2)[C@@]2(CCC3CCCC3)c3[nH]c4cc(-c5ccco5)ccc4c3CCN2C1=O)NCc1cccc(C(F)(F)F)c1,-1.1%,-17.2%,-10.3%
O=C(C[C@H]1C/C=C\C[C@H](Cc2ccc(F)cc2)C(=O)O[C@@H](c2ccccc2)CNC1=O)N[C@H](CO)Cc1ccccc1,15.3%,-21.1%,-0.8%
COc1ccc(F)cc1C1=CC(=O)C[C@H](c2ccc3c(c2)OCO3)C1,6.6%,-8.9%,-4.8%
CCCn1c(N)c(C(=O)CSc2nc3ncc(Cl)cc3[nH]2)c(=O)[nH]c1=O,2.5%,-25.3%,6.1%

# Compound activity: PubChem, National Center for Advancing Translational Sciences (NCATS)
